Screening data from PubChem.
Vaccinia inh – blocks a specific stage of Vaccinia orthopoxvirus infection; Vaccinia-infected cells, mCherry/Venus stage reporter fluorescence; hits give low values; some inactives read as strong as hits; activity change (mCherry), % (concentration not given with the values); hit rate 0.01% among 89,000; AID 1053133;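 active means mCherry past -33% and 40 or more points under the early reporter, replicates agreeing; inconclusive means past -33% without that gap or agreement; tested in A549 cells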;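 further: scaled between vehicle wells and reference inhibitor wells; 23 nL library stock went into each well; one replicate is shown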
Vaccinia inh Venus – further read-out of Vaccinia inh, marked with its call; activity change (Venus), %; measured here: Venus reporter, other viral stage;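 negative = less Venus signal; first of two replicates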
The depositor's hits bear a star; ? = inconclusive; · = no result given. Only part of the results is shown; count on the stated rates, not on these rows.

SMILES | Vaccinia inh | Vaccinia inh Venus
CC(C)NC(=O)N(C)C[C@H]1Oc2ccc(NC(=O)Cc3cn(C)c4ccccc34)cc2C(=O)N([C@@H](C)CO)C[C@H]1C | -8.2 | 0.3
C[C@@H]1CCCCO[C@H](CN(C)S(=O)(=O)c2ccc(F)cc2)[C@@H](C)CN([C@@H](C)CO)C(=O)c2cc(NC(=O)CCC(F)(F)F)ccc2O1 | -13.2 | -11.5
Cc1nc(N2[C@H](C#N)[C@H](c3ccccc3)[C@H]2CO)sc1C | 1.8 | 0.3
C[C@@H]1CN([C@@H](C)CO)C(=O)c2cccc(NC(=O)Nc3cccc4ccccc34)c2O[C@@H]1CN(C)CC1CC1 | 5.5 | -1.4
C[C@@H]1CN([C@H](C)CO)C(=O)c2cccc(NC(=O)C3CC3)c2O[C@H]1CN(C)Cc1ccc(C(F)(F)F)cc1 | -16.4 | -9.7
C/C=C/c1ccc([C@@H]2[C@H](CO)N(C(C)=O)C23CN(C(=O)c2ccccc2)C3)cc1 | -8.1 | -9.6
C[C@H](O)C#Cc1ccc2c(c1)O[C@H](CN(C)C)[C@H](C)CN([C@H](C)CO)S2(=O)=O | 22.6 | 6.1
C#Cc1ccc([C@H]2C=C(C(=O)N3CCN(Cc4ccc5c(c4)OCO5)CC3)O[C@@H](OCc3ccc(CO)cc3)C2)cc1 | -1.5 | 5.4
CN1[C@H](C(=O)NCc2ccccn2)[C@@H](CO)[C@@H]2Cn3c(ccc(-c4ccc(F)cc4)c3=O)[C@@H]21 | 11.3 | 4.6
C[C@H]1CN([C@@H](C)CO)C(=O)c2cc(C#CCC3CCCC3)cnc2O[C@@H]1CN(C)CC1CCOCC1 | -21.6 | -9.3
C[C@H](CO)N1C[C@H](C)[C@@H](CN(C)C(=O)CC2CC2)Oc2ncc(-c3ccc(C#N)cc3)cc2C1=O | 14.9 | 8.9
O=C(N[C@H]1CC[C@H](CCNS(=O)(=O)c2ccc(F)cc2)O[C@@H]1CO)C1CCOCC1 | -5.2 | -0.4
C[C@@H]1CN([C@H](C)CO)C(=O)c2cc(-c3cccc(F)c3)cnc2O[C@@H]1CN(C)C(=O)c1ccccn1 | 11.0 | 6.0
COCC#Cc1ccc2c(c1)O[C@@H](CN(C)C(C)=O)[C@H](C)CN([C@@H](C)CO)S2(=O)=O | 10.6 | 0.7
Cc1ccc(S(=O)(=O)N(C)C[C@@H]2Oc3ccc(NS(=O)(=O)c4ccccc4)cc3CC(=O)N([C@@H](C)CO)C[C@@H]2C)cc1 | -9.3 | 1.2
C[C@@H]1CN([C@@H](C)CO)C(=O)Cc2cc(NC(=O)Cc3ccccc3)ccc2O[C@H]1CN(C)Cc1ccc(Oc2ccccc2)cc1 | ? | ·
Cc1ccc(S(=O)(=O)Nc2ccc3c(c2)C(=O)N([C@@H](C)CO)C[C@@H](C)[C@@H](CN(C)S(=O)(=O)c2ccc(C)cc2)OCCCC[C@H](C)O3)cc1 | -5.3 | -0.4
N#C[C@H]1[C@H](c2ccccc2C2=CCCCC2)[C@H](CO)N1C(=O)NC1CCCCC1 | ? | ·
COc1ccccc1CNC(=O)C[C@H]1C[C@H]2c3cc(NC(=O)C4CCOCC4)ccc3O[C@H]2[C@H](CO)O1 | 2.3 | 5.0
CC(=O)N1[C@@H]2c3ccc(-c4ccccc4)c(=O)n3C[C@H]1[C@H](CO)[C@H]2C(=O)N1CCCCC1 | -4.9 | -7.2
C[C@@H]1CN([C@@H](C)CO)C(=O)Cc2cc(NC(=O)NC3CCCCC3)ccc2O[C@@H]1CN(C)Cc1ccc2c(c1)OCO2 | -11.6 | -20.1
C[C@H]1CN([C@@H](C)CO)C(=O)c2cc(C#CCc3ccccc3)cnc2O[C@H]1CN(C)Cc1ccc(C(=O)O)cc1 | 5.5 | -2.1
C[C@@H]1CN([C@@H](C)CO)C(=O)c2cccc(NS(=O)(=O)c3ccc(Cl)cc3)c2O[C@H]1CN(C)C(=O)Nc1ccccc1 | 7.2 | 3.0
CC(C)CC#Cc1cnc2c(c1)C(=O)N([C@H](C)CO)C[C@H](C)[C@@H](CN(C)S(=O)(=O)c1cn(C)cn1)O2 | 4.8 | 5.4
CC=Cc1ccc2n(c1=O)C[C@@H]1[C@@H](CO)[C@H](C(=O)NCC3CCCCC3)[C@H]2N1C(=O)CC (mixture of isomers) | 9.1 | 7.4
C[C@@H]1CN([C@H](C)CO)C(=O)c2cc(NC(=O)Nc3ccccc3)ccc2O[C@@H]1CN(C)C(=O)Nc1cccc2ccccc12 | 22.2 | 22.6
N#C[C@H]1[C@@H](c2ccc(C3=CCCC3)cc2)[C@@H](CO)N1C(=O)c1cccc(F)c1 | 6.3 | 6.3
COCC(=O)N1CCCCN2[C@H](CO)[C@H](c3ccc(C#Cc4ccc(OC)cc4)cc3)[C@H]2C1 | -26.6 | -27.1
COc1ccc(NC(=O)Nc2ccc3c(c2)C(=O)N([C@@H](C)CO)C[C@@H](C)[C@H](CN(C)Cc2ccc(Cl)c(Cl)c2)OCCCC[C@H](C)O3)cc1 | -19.1 | -10.5
C/C=C/c1ccc([C@@H]2[C@H](C#N)N(C(=O)Cc3ccccn3)[C@H]2CO)cc1 | -12.7 | 0.5
C[C@H](NC(=O)C[C@H]1C[C@@H]2c3cc(NC(=O)Nc4ccc(C(F)(F)F)cc4)ccc3O[C@@H]2[C@H](CO)O1)c1ccccc1 | 11.1 | 12.8
Cc1noc(C)c1S(=O)(=O)N(C)C[C@H]1Oc2ccc(N(C)C)cc2CC(=O)N([C@H](C)CO)C[C@@H]1C | 4.4 | 4.3
O=S(=O)(c1ccc(F)cc1)N1CCCCN2[C@@H](CO)[C@H](c3ccc(C#CC4CCCC4)cc3)[C@@H]2C1 | -18.5 | -16.8
C[C@@H]1CN([C@@H](C)CO)S(=O)(=O)c2ccc(C#CCN(C)C)cc2O[C@H]1CN(C)Cc1cccnc1 | 9.8 | 0.7
O=C(C1CCC1)N1CC2(C1)[C@@H](c1ccccc1)[C@@H](CO)N2Cc1ccccc1F | -10.0 | -1.3
O=C(N[C@@H]1CC[C@@H](CC(=O)N2CCOCC2)O[C@@H]1CO)c1cccc(F)c1 | 3.9 | 2.1
COC(=O)[C@H]1[C@H](CO)[C@H]2Cn3c(ccc(-c4ccccc4F)c3=O)[C@H]2N1Cc1cccnc1 | -2.7 | 4.6
C[C@@H]1CN([C@@H](C)CO)C(=O)c2cccc(NS(=O)(=O)c3ccc(F)cc3)c2O[C@H]1CN(C)S(=O)(=O)c1cccs1 | 9.2 | 4.6
COc1cccc(-c2ccc3c(c2)O[C@@H](CN(C)C(=O)C2CCCCC2)[C@H](C)CN([C@@H](C)CO)S3(=O)=O)c1 | ? | ·
C[C@H](CO)N1C[C@H](C)[C@@H](CN(C)Cc2ccc(C(F)(F)F)cc2)Oc2ccc(NC(=O)Nc3ccc(F)cc3)cc2CC1=O | ? | ·
C[C@@H]1CN([C@@H](C)CO)C(=O)c2cccc(NS(=O)(=O)c3ccccc3)c2O[C@H]1CN(C)CC1CCCCC1 | 2.8 | 5.3
O=C(C[C@@H]1C[C@H]2c3cc(NC(=O)NC4CCCC4)ccc3O[C@H]2[C@H](CO)O1)NCc1cccnc1 | 28.8 | 15.1
CO[C@H]1CC[C@H]2CCN(C)C(=O)[C@@H](C)[C@H](OC)CN(C)C(=O)c3cc(C#N)ccc3OC[C@@H]1O2 | 24.2 | 15.1
O=C(Nc1cccc(F)c1)N1CC(=O)N2[C@@H](CO)[C@@H](c3ccc(Br)cc3)[C@@H]2C1 | -23.3 | -23.5
Cc1noc(C)c1S(=O)(=O)Nc1ccc2c(c1)C(=O)N([C@H](C)CO)C[C@@H](C)[C@@H](CN(C)Cc1ccc(C(=O)O)cc1)OCCCC[C@H](C)O2 | 14.1 | 5.4
CCC(=O)N1C[C@H](C)[C@@H](OC)CN(C)C(=O)c2cc(NS(=O)(=O)CC)ccc2OC[C@H]1C | 3.7 | 10.1
CNC[C@@H]1Oc2ccc(NC(=O)Nc3ccc4c(c3)OCO4)cc2C(=O)N([C@@H](C)CO)C[C@@H]1C | 3.3 | -3.4
C[C@@H]1CN([C@@H](C)CO)C(=O)c2cc(NS(=O)(=O)c3ccc(Cl)cc3)ccc2O[C@H]1CN(C)C(=O)Nc1ccc2c(c1)OCO2 | 3.5 | 0.5
C[C@@H]1CCCCO[C@@H](CN(C)Cc2ccc(Cl)c(Cl)c2)[C@H](C)CN([C@@H](C)CO)C(=O)c2cc(NC(=O)Nc3ccccc3)ccc2O1 | ? | ·
O=C(C[C@H]1CC[C@H]2[C@@H](COC[C@@H](O)CN2C(=O)c2ccccc2)O1)NCc1ccc(-c2ccccc2)cc1 | -13.8 | -10.5
Cc1ccc(S(=O)(=O)Nc2cccc3c2O[C@H](CN(C)S(=O)(=O)c2cn(C)cn2)[C@@H](C)CN([C@@H](C)CO)C3=O)cc1 | -12.3 | 11.0
CC(=O)N1CC(=O)N2[C@H](C1)[C@H](c1ccc(-c3ccc(C)cc3)cc1)[C@@H]2CO | 0.7 | -23.4
C[C@@H]1CCCCO[C@@H](CN(C)Cc2ccccc2)[C@@H](C)CN([C@@H](C)CO)C(=O)c2cc(NC(=O)NC3CCCCC3)ccc2O1 | ? | ·
COc1ccc(CN(C)C[C@@H]2Oc3ccc(NS(=O)(=O)c4ccc(F)cc4)cc3CC(=O)N([C@@H](C)CO)C[C@@H]2C)cc1 | -16.2 | -9.4
COc1cccc(C#Cc2ccc([C@@H]3[C@H]4CN(C(=O)c5ccncc5)CC(=O)N4[C@H]3CO)cc2)c1 | -32.4 | -29.0
C[C@@H]1CN([C@@H](C)CO)C(=O)c2cc(/C=C/c3ccccc3)cnc2O[C@H]1CN(C)Cc1ccccc1 | -32.3 | -33.5
O=S(=O)(Cc1ccccc1)NCC[C@H]1CC[C@H](NS(=O)(=O)c2ccccc2)[C@H](CO)O1 | 15.5 | 14.4
C[C@H]1CN([C@@H](C)CO)C(=O)c2cc(NS(C)(=O)=O)ccc2O[C@@H]1CN(C)C(=O)Nc1ccccc1 | 13.3 | 11.6
C[C@H](CO)N1C[C@H](C)[C@H](CN(C)CC2CC2)Oc2ccc(NC(=O)Cn3cnnn3)cc2CC1=O | 10.9 | 12.9
CCCNC(=O)C[C@@H]1CC[C@@H]2[C@@H](COc3ccc(NC(=O)Nc4ccccc4F)cc3C(=O)N2C)O1 | -1.3 | -1.5

A different layout for four compounds above.
C[C@@H]1CN([C@@H](C)CO)C(=O)c2cccc(NS(=O)(=O)c3ccc(Cl)cc3)c2O[C@H]1CN(C)C(=O)Nc1ccccc1
  Vaccinia inh = 7.2; Vaccinia inh Venus = 3.0

COc1ccccc1CNC(=O)C[C@H]1C[C@H]2c3cc(NC(=O)C4CCOCC4)ccc3O[C@H]2[C@H](CO)O1
  Vaccinia inh = 2.3; Vaccinia inh Venus = 5.0

C[C@H](CO)N1C[C@H](C)[C@@H](CN(C)C(=O)CC2CC2)Oc2ncc(-c3ccc(C#N)cc3)cc2C1=O
  Vaccinia inh = 14.9; Vaccinia inh Venus = 8.9

C[C@H]1CN([C@@H](C)CO)C(=O)c2cc(NS(C)(=O)=O)ccc2O[C@@H]1CN(C)C(=O)Nc1ccccc1
  Vaccinia inh = 13.3; Vaccinia inh Venus = 11.6

Next part:
SMILES | Vaccinia inh | Vaccinia inh Venus
O=C(N[C@@H]1C=C[C@H](CC(=O)N2CCCCC2)O[C@@H]1CO)c1ccc2c(c1)OCO2 | 5.2 | 4.4
C/C=C/c1cnc2c(c1)C(=O)N([C@H](C)CO)C[C@H](C)[C@@H](CN(C)S(=O)(=O)c1cccs1)O2 | -6.9 | -6.7
CCCNC(=O)[C@H]1[C@H](CO)[C@H]2Cn3c(ccc(C4=CCCC4)c3=O)[C@H]2N1C(=O)c1cnccn1 | 8.1 | 10.7
C[C@@H]1CN([C@@H](C)CO)C(=O)c2cc(C#Cc3cccnc3)cnc2O[C@@H]1CN(C)Cc1ccc(F)cc1 | -16.5 | -18.9
C[C@@H]1CCCCO[C@@H](CN(C)C(=O)Nc2ccccc2)[C@@H](C)CN([C@H](C)CO)C(=O)c2cc(NC(=O)c3ccccc3)ccc2O1 | 28.1 | 19.5
C[C@H]1CCCCO[C@@H](CN(C)Cc2ccccc2)[C@@H](C)CN([C@@H](C)CO)C(=O)c2cc(NC(=O)CCC(F)(F)F)ccc2O1 | -25.6 | -17.7
CCc1nc(N2[C@H](CO)[C@@H](c3ccccc3-c3ccccc3F)[C@@H]2C#N)sc1C | -1.6 | -3.6
C[C@@H]1CN([C@H](C)CO)C(=O)c2cccc(N(C)C)c2O[C@H]1CN(C)C(=O)NC1CCCCC1 | 1.9 | -5.1
C[C@@H]1CN([C@H](C)CO)C(=O)Cc2cc(NC(=O)Nc3ccc(F)cc3)ccc2O[C@@H]1CN(C)C(=O)NC1CCCCC1 | 17.6 | 19.2
C[C@@H]1CN([C@@H](C)CO)C(=O)c2cc(NC(=O)NC3CCCCC3)ccc2O[C@@H](C)CCCCO[C@H]1CN(C)Cc1ccc(C(=O)O)cc1 | 15.2 | 4.3
Cc1noc(C)c1S(=O)(=O)Nc1ccc2c(c1)C(=O)N([C@H](C)CO)C[C@H](C)[C@H](CN(C)S(=O)(=O)c1c(C)noc1C)OCCCC[C@H](C)O2 | -9.7 | -0.7
COc1ccc(NC(=O)N(C)C[C@@H]2Oc3ncc(C#C[C@H](C)O)cc3C(=O)N([C@@H](C)CO)C[C@H]2C)cc1 | 15.4 | 10.6
CC(C)NC(=O)Nc1ccc2c(c1)C(=O)N([C@H](C)CO)C[C@H](C)[C@@H](CN(C)S(=O)(=O)c1ccc(F)cc1)O2 | -8.6 | 3.7
C[C@H](CO)N1C[C@H](C)[C@H](CN(C)Cc2ccncc2)Oc2ccc(NS(=O)(=O)c3ccccc3)cc2CC1=O | 7.2 | 1.0
CO[C@H]1CN(C)C(=O)c2ccc(NC(=O)C3CC3)cc2OC[C@H](C)N(Cc2cc(F)ccc2F)C[C@@H]1C | -22.1 | -8.3
